Bioassay records deposited in PubChem BioAssay by several laboratories.
PKD1 kinase inh = inhibitors of human PKD1 kinase, biochemical, fluorescence polarization; Serine/threonine-protein kinase D1 (Homo sapiens), Q15139; PKD1 kinase fluorescence polarization assay; inhibition, %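 (about 10 µM by stock and volumes)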; 200,000 compounds, 0.056% hits; AID 797, 2007;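 active = inhibition of 50% or more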;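 note: controls were vehicle for no effect and a reference inhibitor for full effect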
HSV replic up = enhancers of HSV replication in host cells, fold increase, host cell viability; maximum fold increase; 220,000 compounds, 0.005% hits; HSV replication augmentation in cells; AID 1956, 2009;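 active = peak rise of 1.5-fold or more in the series; tested in PC3 cells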;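 note: first round at 10 µM; read as green reporter fluorescence; hits show the peak of a series up to 25 µM; 1 = signal of infected wells without compound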
Insulin prom inh = inhibitors of insulin promoter-driven GFP, primary screen, imaging, TRM-6 cells (human fetal islet line), eGFP reporter, cell count; reporter expression induced with tamoxifen; inhibition, % at 2 µM; 130,000 compounds, 0.9% hits; AID 1273, 2008;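 active = inhibition above the mean plus 3 SD, with well images judged a real hit on visual review, cut at about 60% in these data, passing the limit was not always enough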
GALR2 agonist = GALR2 receptor agonists, primary screen, cell-based; Galanin receptor type 2 (Homo sapiens), O43603; GALR2-expressing cells, agonist activation read-out; activation, %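 (tested at 5 µM)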; 140,000 compounds, 0.48% hits; AID 803, 2007;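 active = above mean plus 3 SD of all compounds, about 5% in these data, not always enough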;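 note: 0% = vehicle buffer wells and 100% = reference agonist at full effect; tested in CHO reporter cells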
Target sequence (O43603 whole entry, looked up): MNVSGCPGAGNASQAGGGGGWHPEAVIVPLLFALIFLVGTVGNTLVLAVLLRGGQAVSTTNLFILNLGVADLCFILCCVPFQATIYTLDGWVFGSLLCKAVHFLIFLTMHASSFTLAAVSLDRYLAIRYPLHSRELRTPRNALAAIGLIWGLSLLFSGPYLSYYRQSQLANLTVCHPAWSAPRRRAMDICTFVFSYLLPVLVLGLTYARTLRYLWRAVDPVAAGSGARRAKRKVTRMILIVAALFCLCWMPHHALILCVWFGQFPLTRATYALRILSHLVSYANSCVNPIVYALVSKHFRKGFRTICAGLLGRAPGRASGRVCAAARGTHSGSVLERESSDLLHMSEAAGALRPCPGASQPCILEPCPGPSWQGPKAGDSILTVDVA
RGS16-Gao = modulators of RGS16 binding to Galphao, primary screen, biochemical, human proteins, multiplexed bead flow cytometry | bead-based flow cytometry RGS16-Galphao binding, fluorescence; actives lie on both sides | AID 1441, 2008 | binding response (% of control), % at 10 µM | 220,000 compounds, 0.38% hits | Regulator of G-protein signaling 16 (Homo sapiens) + Guanine nucleotide-binding protein …;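 active = below 25% or above 175%, edge rows of some plates excepted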;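 note: Galphao activated by GDP with aluminum fluoride before binding; 100% = wells without compound and 0% = beads without RGS; some results beyond the cut were filed as inactive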
Target sequence (O15492 whole entry, looked up): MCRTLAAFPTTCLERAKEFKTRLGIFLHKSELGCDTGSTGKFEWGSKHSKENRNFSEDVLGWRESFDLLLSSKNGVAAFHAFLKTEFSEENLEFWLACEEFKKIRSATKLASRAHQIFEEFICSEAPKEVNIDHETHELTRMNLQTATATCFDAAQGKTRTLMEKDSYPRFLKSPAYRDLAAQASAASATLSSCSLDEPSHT
Target sequence (P09471 whole entry, looked up): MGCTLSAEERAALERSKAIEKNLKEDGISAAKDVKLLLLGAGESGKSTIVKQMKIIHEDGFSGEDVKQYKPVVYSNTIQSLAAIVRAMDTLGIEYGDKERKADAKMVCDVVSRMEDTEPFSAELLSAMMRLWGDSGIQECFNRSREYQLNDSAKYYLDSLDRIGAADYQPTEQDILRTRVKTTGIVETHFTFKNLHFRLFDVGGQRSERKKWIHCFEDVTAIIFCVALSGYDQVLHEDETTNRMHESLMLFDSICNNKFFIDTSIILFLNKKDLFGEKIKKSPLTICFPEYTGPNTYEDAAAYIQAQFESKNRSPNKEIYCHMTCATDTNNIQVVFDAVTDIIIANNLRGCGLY
Insulin prom inh cell count = also measured in Insulin prom inh; calls as there; normalized cell count, %; measured here: cell count, toxicity; reference of the scale not given here;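 cells exposed to compound for 48 h; stained nuclei by imaging scaled within each plate; lower means fewer cells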
HSV replic up primary fold = recorded beside HSV replic up, whose call it bears; fold increase; compound at 10 µM; measured here: primary screen fold increase 10 uM; tested in PC3 cells;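 GFP signal in the first replicate; 1 = infected wells without compound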
* = called active by the depositor; i = inactive; · = no result given.

Each structure is followed by: RGS16-Gao, GALR2 agonist, HSV replic up, Insulin prom inh cell count, HSV replic up primary fold, PKD1 kinase inh, Insulin prom inh
Cc1nc2ccccc2nc1OCC(=O)Nc1cc(C(F)(F)F)ccc1N1CCOCC1
    102, -0.5, i, 65, 1.1, -2, -56
O=S(=O)(c1ccc(Cl)s1)N1CCCc2cccc(O)c21
    101, -0.3, i, 157, 1.1, -4, -15
COc1ccc(OCC(=O)O/N=C(\N)Cc2ccc(Cl)cc2)cc1
    100, -1.2, i, 148, 0.98, -10, 26
Cn1c(=O)oc2cc(S(=O)(=O)NCCN3CCCCCC3)ccc21
    175, -1.0, i, ·, 0.95, 2, ·
Cc1c(Br)c(C(=O)N2CCc3ccccc32)nn1C
    96, -0.2, i, 107, 1, -5, -17
O=C(c1cc(C(=O)NCCc2ccccc2)c(=O)n(CCc2ccccc2)c1)c1cc(Cl)ccc1O
    105, -0.8, i, 72, 0.85, -5, -3
CC(=O)Nc1ccc(-c2csc(NC(=O)c3ccc(C)o3)n2)cc1
    98, -1.5, i, 135, 0.96, 1, 39
O=C(c1ccc2c3c(cccc13)CC2)C1CCCN(C(=O)c2cc[n+]([O-])cc2)C1 (configuration not stated)
    97, ·, i, 175, 0.96, -2, 4
COc1ccc(C(=O)Oc2ccc(F)cc2C(=O)/C=C/c2ccc(OC)c(OC)c2)cc1
    105, -1.6, ·, ·, ·, -11, ·
O=C(Nc1ccccc1C(=O)N/N=C/c1ccc(O)cc1)c1ccccc1
    99, ·, i, ·, 1.2, ·, ·
Cc1ccc(-c2nnn(CCC(=O)NC3CCCC3)n2)cc1
    104, -0.7, i, ·, 1, -7, ·
CS(=O)(=O)c1ccc(N2CCOCC2)c(S(C)(=O)=O)c1
    92, -0.4, i, 114, 1, -10, 13
Cc1nn(-c2ccccc2)c2nc(C(F)(F)F)[nH]c(=O)c12
    109, -1.5, i, ·, 0.82, -9, ·
O=C(CC1(C(=O)O)CCCC1)N1CCOCC1
    100, -1.1, i, 136, 0.87, -1, 23
CC(C)(O)C#Cc1ccc(CN2CCN(Cc3ccsc3)C(CCO)C2)cc1 (configuration not stated)
    102, ·, i, ·, 1.1, 3, ·
COc1cccc(-n2nnnc2SCC(=O)N2CCCc3ccccc32)c1
    105, -3.0, i, ·, 0.86, 3, ·
Cc1cc(C)cc(N2C(=O)CC(N(C(=O)c3ccco3)c3cc(C)cc(C)c3)C2=O)c1 (configuration not stated)
    116, -3.6, i, 115, 0.9, -1, -33
COc1ccc(Oc2ccc(S(=O)(=O)N3CCCCC3)cc2S(=O)(=O)N2CCCCC2)cc1
    98, ·, i, ·, 0.88, ·, ·
CC(C)OCC(O)CSc1ccccn1 (configuration not stated)
    90, -0.6, i, 92, 0.89, -6, 43
O=c1oc2c3c(nn2c2ccccc12)CCCC3
    110, -2.5, i, 114, 0.76, 1, -43
CCOC(=O)c1c(CN2CCN(C)CC2)n(-c2ccccc2)c2cc(Br)c(O)cc12
    95, ·, i, ·, 0.73, ·, ·
O=C(COC(=O)c1ccccc1F)c1ccc(-n2nncc2-c2ccco2)cc1
    100, -0.3, i, ·, 1, 5, ·
Cc1sc(NC(=O)CCC(=O)O)c(C#N)c1C
    107, ·, i, 27, 0.82, 5, 43
Cc1cc(NC(=O)Cn2nc3c(cc2=O)CCCC3)ccc1Br
    96, -2.0, i, 96, 0.99, -9, 47
CNS(=O)(=O)c1cccc(C(=O)OCC(=O)Nc2sc3c(c2C#N)CCCCC3)c1
    101, 0.4, i, ·, 0.96, 5, ·
CCc1nc(C)c(-c2ccccc2)c(=O)[nH]1
    101, -1.1, i, 54, 0.86, -1, 11
Cc1cc(Oc2ccc(C#N)cc2)nc(NCc2ccccc2)n1
    102, -1.0, i, 79, 1, 1, -32
Cc1cc(C)cc(NC(=O)NC(C)C2CCCO2)c1 (configuration not stated)
    104, ·, i, ·, 0.94, -5, ·
CC#CC[N+](C)(C)CCCCCCCCCCCC
    102, 0.9, i, ·, 0.71, 5, ·
CC(=O)Nc1n[nH]c(S(=O)(=O)Cc2ccc(Cl)cc2Cl)n1
    ·, -0.9, i, 50, 1, -12, -8
S=C(NCc1ccccc1)NCc1cccc(CNC(=S)NCc2ccccc2)c1
    41, -2.3, i, 81, 0.98, -8, -41
Cc1ccc(S(=O)(=O)CC(O)COc2ccc(C#N)cc2)cc1 (configuration not stated)
    106, ·, i, 146, 1.1, 5, 20
CN(C(=O)COC(=O)c1cccnc1Nc1cccc(C(F)(F)F)c1)C1CCS(=O)(=O)C1 (configuration not stated)
    104, 0.7, i, 99, 1.1, 9, -30
O=S(=O)(Nc1ccc(-c2nc3ccccc3o2)cc1)c1ccccc1
    81, -1.0, i, 96, 0.94, 5, -24
Cc1cccc(N2CCN(c3nnnn3-c3ccccc3)CC2C)c1 (configuration not stated)
    107, -3.3, i, 98, 0.81, -3, 3
O=C(NNC1CC(=O)N(c2ccc(Cl)cc2)C1=O)c1ccccn1 (configuration not stated)
    104, ·, i, 112, 0.79, -6, 45
CC(C)CC(C(=O)N1CCc2ccccc2C1)N1C(=O)c2ccccc2C1=O (configuration not stated)
    105, -1.3, i, 85, 1.1, -7, -26
O=C(COc1ccc(Cl)cc1)NCc1nnc(SCC(=O)N2CCCc3ccccc32)o1
    94, -1.1, i, 73, 0.71, -2, -22
Oc1c(Br)cc(C2N=C(c3ccccc3Cl)NO2)cc1Br (configuration not stated)
    98, -0.7, i, 143, 0.92, 5, 5
Cc1ccn2c(/C=N/OCc3cccc(F)c3)c(-c3ccc(Cl)cc3)nc2c1
    99, -1.4, i, 34, 0.97, -8, 44
CN(C)CCNC(=O)c1cc2sc3ccccc3c2s1
    103, ·, i, 101, 0.9, 0, -39
CCN1CCCC1CNC(=O)Cn1cccc1C(=O)c1ccccc1C (configuration not stated)
    104, -1.0, i, 170, 1, -3, -43
CC(C)c1nnc(NC(=O)C2CCN(c3cnccn3)CC2)s1
    ·, -2.0, i, 133, 0.89, 1, 24
CSc1ccccc1C(=O)Nc1nccs1
    98, -1.5, i, 122, 0.98, -3, 14
COc1ccccc1NC(=O)COC(=O)CNC(=O)c1ccc(OC)c(OC)c1
    103, -0.7, i, 132, 1, -3, -50

Given bar-delimited: five of the compounds above.
compound | RGS16-Gao | GALR2 agonist | HSV replic up | Insulin prom inh cell count | HSV replic up primary fold | PKD1 kinase inh | Insulin prom inh
CN(C(=O)COC(=O)c1cccnc1Nc1cccc(C(F)(F)F)c1)C1CCS(=O)(=O)C1 (configuration not stated) | 104 | 0.7 | i | 99 | 1.1 | 9 | -30
O=S(=O)(Nc1ccc(-c2nc3ccccc3o2)cc1)c1ccccc1 | 81 | -1.0 | i | 96 | 0.94 | 5 | -24
Cc1cccc(N2CCN(c3nnnn3-c3ccccc3)CC2C)c1 (configuration not stated) | 107 | -3.3 | i | 98 | 0.81 | -3 | 3
O=C(NNC1CC(=O)N(c2ccc(Cl)cc2)C1=O)c1ccccn1 (configuration not stated) | 104 | · | i | 112 | 0.79 | -6 | 45
CC(C)CC(C(=O)N1CCc2ccccc2C1)N1C(=O)c2ccccc2C1=O (configuration not stated) | 105 | -1.3 | i | 85 | 1.1 | -7 | -26

Remaining list, next part:
Each structure is followed by: RGS16-Gao, GALR2 agonist, HSV replic up, Insulin prom inh cell count, HSV replic up primary fold, PKD1 kinase inh, Insulin prom inh
Cc1cccc(C)c1OCC(=O)Nc1ccc(S(=O)(=O)Nc2ccccn2)cc1
    106, -1.6, i, 98, 1.2, -9, -4
COc1cc(C2Nn3c(nnc3-c3ccccc3OC)S2)ccc1O (configuration not stated)
    98, -1.9, i, 154, 0.96, -8, 35
C/C(=N\NC(=O)c1cc(Br)ccc1O)c1cccs1
    102, ·, i, 72, 1, -1, 9
O=C(c1ccc(NS(=O)(=O)c2cccs2)cc1)N1CCCCC1
    94, -2.9, i, 57, 0.8, -2, 3
CC(C)n1nc(C(=O)Nc2cccc(S(=O)(=O)NCc3ccco3)c2)c2ccccc2c1=O
    101, ·, i, ·, 0.64, ·, ·
Cc1ccc(-n2c(SCc3ccc([N+](=O)[O-])cc3)nc3ccccc3c2=O)cc1
    93, -2.0, i, 57, 1.1, 13, -17
C[C@H](O)[C@@H](C(=O)N1CCN(C(=O)OC(C)(C)C)CC1)n1cc(CCCCNC(=O)OC(C)(C)C)nn1
    103, ·, i, ·, 1, -4, ·
CN(C)S(=O)(=O)c1ccc(C(=O)Nc2nnc(Cc3ccccc3)s2)cc1
    100, -3.6, i, 139, 0.79, -6, 47
Cc1noc(C)c1COc1ccc(C(=O)NCC2CCCO2)cc1 (configuration not stated)
    108, -2.2, i, 50, 0.85, -11, 21
COc1ccc(C[C@H]2CN3C(=NC[C@H]3C)N2CCNC(=O)c2ccc(C)c(Br)c2)cc1
    98, ·, i, ·, 0.74, 0, ·
COc1ccc(CC(=O)NCc2cccs2)cc1
    103, -1.1, i, 83, 0.87, 3, 32
Clc1ccc(Nc2ncn[nH]2)c(Cl)c1
    97, ·, i, 112*, 0.98, -2, 66*
CCOC(=O)c1c(C)c(C(=O)Nc2ccc3c(c2)OCO3)c(C)n1C
    99, -2.6, i, ·, 0.93, -9, ·
Cc1cc(NC(=O)Nc2cccc(C)c2C)no1
    101, ·, i, 87, 1, -4, 43
Nc1ccc(-c2nc3ncccc3o2)c(Cl)c1
    102, ·, i, 76, 0.91, 1, 9

Next section; the last five above are carried over.
Each structure is followed by: RGS16-Gao, GALR2 agonist, HSV replic up, Insulin prom inh cell count, HSV replic up primary fold, PKD1 kinase inh, Insulin prom inh
COc1ccc(CC(=O)NCc2cccs2)cc1
    103, -1.1, i, 83, 0.87, 3, 32
Clc1ccc(Nc2ncn[nH]2)c(Cl)c1
    97, ·, i, 112*, 0.98, -2, 66*
CCOC(=O)c1c(C)c(C(=O)Nc2ccc3c(c2)OCO3)c(C)n1C
    99, -2.6, i, ·, 0.93, -9, ·
Cc1cc(NC(=O)Nc2cccc(C)c2C)no1
    101, ·, i, 87, 1, -4, 43
Nc1ccc(-c2nc3ncccc3o2)c(Cl)c1
    102, ·, i, 76, 0.91, 1, 9
Cc1onc(-c2ccccc2Cl)c1C(=O)Nc1ccc2c(c1)OCO2
    102, -0.8, i, ·, 0.99, -16, ·
COCCNC(=O)c1cc2c(-c3ccc(Cl)cc3)nn(C)c2s1
    102, -0.5, i, ·, 0.74, -3, ·
O=C(Cc1c[nH]c2ccccc12)NC1(C(=O)NC2CCCCC2)CCCCC1
    100, -0.9, i, 149, 0.99, -10, -7
Cc1ccc(NC(=O)Nc2cc(S(=O)(=O)N(C)C)ccc2C)cc1
    101, ·, i, ·, 0.96, -4, ·
Cc1cccc(Cn2c(N3CCCCC3C)nc3c2c(=O)[nH]c(=O)n3C)c1 (configuration not stated)
    46, -1.7, i, ·, 0.79, -9, ·
Cc1ccc(OCCCC(=O)Nc2nc3ccccc3[nH]2)cc1
    98, ·, i, 57, 0.95, -5, -82
O=C(CN(C(=O)CCC(=O)Nc1ccccn1)c1ccc2c(c1)OCCO2)NCCc1ccccc1
    106, ·, i, ·, 0.96, ·, ·
CC1CCCN(C(=O)c2sc3cc([N+](=O)[O-])ccc3c2Cl)C1 (configuration not stated)
    241, -2.9, i, 81, 0.84, 2, -3
COc1ccccc1N1CCN(C(=O)c2ccc([N+](=O)[O-])s2)CC1
    115, -0.2, i, ·, 0.91, -5, ·
CC(=O)N1CCN(CC(=O)Nc2ccc(Cl)c(S(=O)(=O)N(C)C)c2)CC1
    101, -2.2, i, ·, 1, 2, ·
CS(=O)(=O)c1ccc2nc(NC(=O)c3ccc(NS(=O)(=O)c4ccc(F)c(F)c4)cc3)sc2c1
    98, ·, i, ·, 0.9, ·, ·
COc1ccc(NS(=O)(=O)c2ccc(NC(=S)NC(=O)c3cccnc3)cc2)nn1
    105, ·, i, ·, 0.99, -10, ·
Cc1oc(-c2ccccc2Cl)nc1CN(Cc1ccccn1)C[C@@H]1CCC(=O)N1
    87, ·, i, 104, 1, 5, -55
O=C(Oc1ccccc1N1C(=O)C2CCCCC2C1=O)c1ccc(Cl)cc1 (configuration not stated)
    88, -2.0, i, 89, 1.3, -10, 8
COc1ccccc1OCCNc1nc2c(c(=O)n(C)c(=O)n2C)n1C
    100, -2.0, i, 100, 1, 1, 33
Cc1ccccc1-n1nnnc1SCc1csc(-c2ccccc2)n1
    98, -3.9, i, ·, 0.97, -14, ·
COc1ccc(-c2nc3ccccc3c(=O)n2CCOc2cc(C)ccc2C)cc1
    115, -1.4, i, 98, 1, -13, 38
